TRPML1 agonist – qHTS for Agonists of the Human Mucolipin Transient Receptor Potential 1 (TRPML1). activation, % (test concentration not listed). TRPML1-expressing cells, Ca2+ dye fluorescence, FDSS; host cell line not named in the record; reference of the full effect not given here. hit rate 0.12% among 410,000. Mucolipin-1 (Homo sapiens), Q9GZU1; in the data active = activation above about 50%; inconclusive = about 30% to 50%; inactive = below about 30%; further: 0% is about no effect; the text of the record puts the active cut at 80%
Target sequence (Q9GZU1 whole entry, looked up): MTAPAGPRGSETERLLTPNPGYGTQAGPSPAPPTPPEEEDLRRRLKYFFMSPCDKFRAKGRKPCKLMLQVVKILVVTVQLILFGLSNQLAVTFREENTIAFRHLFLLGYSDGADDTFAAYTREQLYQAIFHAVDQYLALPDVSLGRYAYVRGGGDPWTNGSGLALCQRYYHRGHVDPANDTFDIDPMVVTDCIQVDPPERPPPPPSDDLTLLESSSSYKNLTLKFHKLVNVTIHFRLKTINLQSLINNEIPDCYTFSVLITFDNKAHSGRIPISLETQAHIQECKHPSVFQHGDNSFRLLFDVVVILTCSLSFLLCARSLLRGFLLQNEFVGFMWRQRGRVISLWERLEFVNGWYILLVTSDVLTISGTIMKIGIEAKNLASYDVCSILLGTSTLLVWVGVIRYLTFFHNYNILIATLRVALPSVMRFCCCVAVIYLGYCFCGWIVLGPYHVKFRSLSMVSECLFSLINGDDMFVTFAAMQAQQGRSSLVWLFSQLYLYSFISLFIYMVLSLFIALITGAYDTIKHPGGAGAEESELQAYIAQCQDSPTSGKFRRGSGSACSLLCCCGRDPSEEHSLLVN
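TRPML1-DL cells, Tet-induced overnight (~16 h, 37 degrees C), loaded 45-90 min at room temperature with Ca8 no-wash calcium dye plus quencher. FDSS fluorescence: 10 s baseline, compound pin-transfer, 110 s agonist read, then EC80 54-4 (4uM final) and 110 s antagonist read.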
Menin MLL FP FL – qHTS Assay for Inhibitors Targeting the Menin-MLL Interaction in MLL Related Leukemias: Competition With Fluorescein Labeled MLL-derived Peptide; Fluorescence polarization, fluorescein-MLL peptide displacement from menin; 290,000 tested, under 10 active; FP activity change, % at 61.4 µM; inconclusive = falling polarisation curve, or a change in total fluorescence; inactive = total fluorescence flat and polarisation flat or rising; no compound was filed as active; the % refers to the polarisation; negative = inhibition;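 further: % of control where 0% means no effect; inhibitors lower the polarisation; unlabelled MLL peptide was the positive control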
gsp antagonist – qHTS for Antagonists of gsp, the Etiologic Mutation Responsible for Fibrous Dysplasia/McCune-Albright Syndrome: qHTS | Potency, µM (titrated, usually from 76.9 µM), for inactives: at the top dose activity change, negative = inhibition, usual class: inhibitors | AID 624288, 2012 | hit rate 0.4% among 340,000 | gsp-mutant cells, cAMP HTRF, 30 min; control for the full effect not named in the record; active = falling curve of any shape with a large fitted effect; inconclusive = falling curve, mostly with a smaller effect; inactive = flat or rising curve; cell line not stated here;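 further: intracellular cAMP measured with PDE inhibitor Ro 20-1724 present during compound exposure; potency means the concentration at half of the fitted maximal effect; on the % scale 0 is the no-effect control and ±100 the full control effect; nearly all actives have a fitted effect of over 65% in size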
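G418-selected cells were plated in DMEM/10% FBS for 16-24 h at 37C, then treated with compounds plus the PDE inhibitor […] (300 uM solution added) for 30 min at 37C. Intracellular cAMP was measured by HTRF after 30 min lysis at room temperature.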
ClpP mod – qHTS Assay for Activators of ClpP; purified B. subtilis ClpP, FRET peptide cleavage, 20 min; hit rate 1.9% among 340,000; Potency, µM (doses to about 57.5 µM), inactives show top-dose activity change, negative = active; active = well fitted falling curve with a large enough effect; inconclusive = small, poorly fitted or top-dose-only effect; inactive = no such curve, though single readings can be large or run the other way; further: potency means the concentration at half of the fitted maximal effect; the source files actives as falling curves though it sought activators and does not explain the sign; nearly all actives have a fitted effect of over 65% in size; many hits overshoot -100%
Target sequence (P80244 whole entry, looked up): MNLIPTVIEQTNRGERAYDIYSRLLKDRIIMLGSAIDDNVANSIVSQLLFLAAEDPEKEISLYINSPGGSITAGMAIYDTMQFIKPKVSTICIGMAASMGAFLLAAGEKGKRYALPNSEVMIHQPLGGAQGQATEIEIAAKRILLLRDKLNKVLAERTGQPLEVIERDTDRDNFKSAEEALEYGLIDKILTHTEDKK
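FRET quenching reversal measured ClpP activation: 10 microg/mL B. subtilis ClpP at pH 8 with the FRET-FV decapeptide, read at 430 nm after 320 nm excitation. The 20-min minus 0-min signal was scaled between DMSO/no-enzyme wells and ADEP (5.8 microM final).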
gsp agonist – qHTS for Agonist of gsp, the Etiologic Mutation Responsible for Fibrous Dysplasia/McCune-Albright Syndrome: qHTS. gsp mutant cells, cAMP HTRF, 30 min; control for the full effect not named in the record. Potency, µM (highest dose often 76.9 µM), without a hit: top-dose activation (cAMP increase), actives largely listed as activators. hit rate 0.13% among 340,000. AID 624287, 2012; active = well fitted activation curve with a large enough effect; inconclusive = small, poorly fitted or top-dose-only effect, or another doubt; inactive = no such curve, though single readings can be large or run the other way; cell line not stated here;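 further: phosphodiesterase inhibitor Ro 20-1724 added with compounds to block cAMP breakdown; potency means the concentration at half of the fitted maximal effect; nearly all actives have a fitted effect of over 60% in size; about a fifth of the inactives were tested at one dose only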
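Cells stably selected in G418 were plated at 2000/well, grown 16-24 hr, then given compounds in DMSO with the PDE inhibitor […] (300 uM solution added) for 30 min at 37C; cAMP was read by HTRF.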
TRPML1 blocker – qHTS for Inhibitors of the Human Mucolipin Transient Receptor Potential 1 (TRPML1); hit rate 0.02% among 390,000; Mucolipin-1 (Homo sapiens), Q9GZU1; TRPML1-inducible cells, Ca2+ dye fluorescence, FDSS; stronger effect = lower value; inhibition of EC80 agonist-evoked calcium signal; activity change, negative = inhibition, % (test concentration not listed); in the data active means activity change below about -50%; inconclusive means about -30% to -50%; inactive means above about -30%;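 further: stimulus is agonist 54-4 at its EC80 concentration; on the % scale 0 is the no-effect control and ±100 the full control effect; compound concentration not given in the record; the text of the record puts the active cut at -80%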
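Calcium fluorescence in TRPML1-DL cells induced overnight with Tet: a 110 s read after compound pin addition, then a 110 s antagonist read after challenge with 54-4 at 4 uM final (EC80).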
An asterisk follows results filed as active; ? = inconclusive; / = not tested or not shown; & = joins results of further samples; [ ] = another dose, or the depositor's remark.

mol,TRPML1 agonist,Menin MLL FP FL,gsp antagonist,ClpP mod,gsp agonist,TRPML1 blocker
Cc1cc(N2CCCCC2)nc2ccc(NC(=O)/C=C/c3ccccc3OC(C)C)cc12,0.9,/,/,-18%,/,-4
CCc1c(C)nc(N)c(C#N)c1-c1ccccc1,-0.5,0.1,-3%,/,?,-20
CC(C)Cc1cc(C(=O)Nc2sc3c(c2C#N)CCC3)no1,-0.1,5.1,-17%,20%,?,-2
CC(=O)c1c(C)oc2ccc(N(C(=O)Oc3ccccc3)S(=O)(=O)c3ccc(Br)cc3)cc12,1.5,/,/,-4.8%,/,-28
COc1cccc(C(=O)NCC(c2ccco2)N2CCOCC2)c1 (stereo unspecified),0.7,/,4%,-1.0%,-4%,1
Cc1cc(=O)n2[nH]c(-c3ccc(F)cc3)cc2n1,-0.4,2.3,-2%,16µM*,9%,0
C/C(=N/OC(=O)c1ccc(F)cc1)c1ccc(C)cc1,-0.3,1.0,15%,-0.6%,3%,-8
Cc1cc(C)c(S(=O)(=O)Nc2cccc3cccnc23)c(C)c1,2.7,-3.7,/,/,/,-10

mol,TRPML1 agonist,Menin MLL FP FL,gsp antagonist,ClpP mod,gsp agonist,TRPML1 blocker
CC(C)(C)Nc1nc(OCC#N)nc(N2CCCCC2)n1,1.2,-2.4,22%,-0.4%,-3%,27
O=C(CSc1nncn1-c1cccnc1)Nc1cccc([N+](=O)[O-])c1,-0.5,5.3,6%,/,-4%[15.4 µM],19
CC(=O)N(Cc1cccs1)Cc1cc2cc(C)c(C)cc2nc1Cl,-1.0,-4.0,?,-6.5%,-83%[inhibitor],0
Cc1ccc(S(=O)(=O)n2ccc(-c3cccc(OCc4c(F)cccc4Cl)c3)n2)cc1,4.4,5.7,2%,-1.9%,12%,13
CCn1nc(C)c(CN2CCC(n3nccc3NC(=O)Cc3ccccc3)CC2)c1C,0.2,/,3%,-0.7%,4%,5
CCOC(=O)c1c(NC(N)=O)sc(C)c1C,-1.3,-0.8,8%,0.9%,-4%,-1
Cc1c[n+](C)ccc1CC1C([N+](=O)[O-])=C[N-]c2ncnn21 (stereo unspecified),1.1,-2.6,-2%,-3.1%,-103%[inhibitor],-5
Cn1cc(S(=O)(=O)N2CCCCCC2)cc1C(=O)Nc1ccccc1F,0.3,/,/,0.4%,/,2

mol,TRPML1 agonist,Menin MLL FP FL,gsp antagonist,ClpP mod,gsp agonist,TRPML1 blocker
O=C(Nc1cc(Cl)cc(Cl)c1)c1cc(S(=O)(=O)N2CCC3(CC2)OCCO3)ccc1F,-0.5,/,/,-9.4%,/,2
CCOC(=O)CCCNC(=O)CN1CCC(c2nc3ccccc3s2)CC1,-1.0,-0.6,-1%,-0.8%,-3%[15.4 µM],55
COc1cc(/C=N/NC(=O)c2ccncc2)cc2c1OCO2,/,-2.6,-1%,0.4%,-49%[inhibitor],/
O=C(NC(=S)NCC1CCCO1)c1ccc(Cl)cc1Cl (stereo unspecified),0.9,1.3,-6%,0.7%,1%,13
COC(=O)c1cc(S(=O)(=O)N2CCN(c3cccc(OC)c3)CC2)cn1C,-0.2,/,-1%,/,-1%,4
Cc1cccc(NC(=S)N(CCN(C)C)Cc2cc3cc(C)ccc3[nH]c2=O)c1,-0.2,6.2,-2%,/,-7%[15.4 µM],10
CCNC(=O)c1cc2c(c(-c3cccc(-c4cccc(C(=O)N(C)C)c4)c3)n1)[C@@H](CCO)N(S(=O)C(C)(C)C)C2 (stereo partly specified),0.4,/,/,-4.1%,/,10
C[C@]12c3[nH]c4ccc(Cl)cc4c3CCN1C(=O)[C@@H](CC(=O)NCCc1ccccn1)C[C@@H]2C(=O)N1CCOCC1,-0.9,/,0%,0.5%,/,6

mol,TRPML1 agonist,Menin MLL FP FL,gsp antagonist,ClpP mod,gsp agonist,TRPML1 blocker
Cc1noc(C)c1COc1ccccc1C(=O)NC(C)c1ccc(Cl)cc1 (stereo unspecified),0.9,/,-18%,-0.2%,13%,1
COc1ccc(S(=O)(=O)Nc2ccc(NC(C)=O)cc2)cc1Br,-0.2,-0.7,4%,/,2%,12
Cc1ccc2[nH]c(C(=O)NN=C3CCCCC3)c(-c3ccccc3)c2c1,0.9,0.3,3%,-1.3%,-10%[15.4 µM],-3
COc1ccc(CCN(C)C(=O)c2cc(S(=O)(=O)NCc3ccccc3)ccc2C)cc1OC,1.4,/,8%,/,-10%[15.4 µM],-6
O=C(Nc1cccc(S(=O)(=O)N2CCCCCC2)c1)c1cc(=O)c2ccccc2o1,0.4,0.3,-95%,/,-1%[15.4 µM],8
COc1ccc(OC(=O)/C=C/c2ccc([N+](=O)[O-])cc2)cc1,0.1,6.0,7%,/,-2%,13
COc1ccccc1NC(=O)NC1(C)CCS(=O)(=O)C1 (stereo unspecified),0.6,5.0,3%,/,-20%,1
Cc1cc([N+](=O)[O-])cc2c1-c1ncccc1C2=Nc1ccccc1,-0.7,2.4,-1%,1.6%,11%[15.4 µM],5

Limited to ClpP mod and TRPML1 blocker, for some of the entries so far:
| canonical_smiles | ClpP mod | TRPML1 blocker |
| --- | --- | --- |
| Cc1c[n+](C)ccc1CC1C([N+](=O)[O-])=C[N-]c2ncnn21 (stereo unspecified) | -3.1% | -5 |
| CCc1c(C)nc(N)c(C#N)c1-c1ccccc1 | / | -20 |
| Cc1cc([N+](=O)[O-])cc2c1-c1ncccc1C2=Nc1ccccc1 | 1.6% | 5 |

Other structures:
mol,TRPML1 agonist,Menin MLL FP FL,gsp antagonist,ClpP mod,gsp agonist,TRPML1 blocker
CCOC(=O)C1CCN(C(=O)CCc2nnc3ccc(NCc4ccco4)nn23)CC1,0.1,/,-3%,-8.3%,?,0
COCC(C)Nc1nc(C)c(C(C)=O)s1 (stereo unspecified),-0.5,-5.8,14%,-2.5%,10%[15.4 µM],-15
CN(Cc1c(C(=O)N/N=C/c2ccc(O)cc2)nnn1-c1nonc1N)C1CCCCC1,0.3,1.1,-2%,2.2%,-54%[inhibitor],19
CCOc1ccc(C2CC(=O)Nc3nc(SCc4ccccc4C)[nH]c(=O)c32)cc1OC (stereo unspecified),-0.5,/,/,-14%,/,4
Cc1cccc(OCc2nnc3n2CCCCC3)c1,0.2,-3.3,4%,-0.7%,-25%,-21
Cc1ccc(C(=O)Nc2ccc(OCc3cc(=O)n4c(C)csc4n3)cc2)cc1,-0.4,/,/,-1.5%,/,-22
O=C(CN(C(=O)CCC(=O)Nc1ccccn1)C1CCCC1)NCc1ccc(F)cc1,-0.4,4.3,7%,/,-19%,-1
COC(=O)C1C(O)=C(C(C)=N)C(=O)CC1(C)C (stereo unspecified),-0.1,0.0,-1%,-1.9%,-9%,27

mol,TRPML1 agonist,Menin MLL FP FL,gsp antagonist,ClpP mod,gsp agonist,TRPML1 blocker
CCOC(=O)Cc1csc(NC(=O)CSc2cc(Cl)ccc2Cl)n1,0.5,1.5,13%,-3.3%,29%,-11
Nc1ncncc1-c1ccccc1Cl,-0.6,/,6%,/,3%,4
CN(C)CCNC(=O)C(=O)NCC(c1ccc2c(c1)OCO2)N1CCOCC1 (stereo unspecified),0.5,/,/,0.7%,/,20
CC(C)CCNC(=O)C1CCCN(S(=O)(=O)c2ccc3c(c2)CC(C)N3C(=O)C2CC2)C1 (stereo unspecified),1.8,-0.8,-12%,1.3%,23%,-6
CCCCNS(=O)(=O)c1ccc(S(=O)(=O)n2cnc3ccccc32)cc1,0.9,3.9,-1%,0.2%,8%,-17
Cc1cccc(-n2c(N)c(-c3nc4ccccc4n3C)c3nc4ccccc4nc32)c1,2.9,?,?,7.8%,13%,-17
CCOC(=O)C1CCN(c2ncnc3c2[nH]c2cccc(OC)c23)CC1,0.8,4.2,9%,8.8%,-44%[inhibitor],-10
CCN1CCN(S(=O)(=O)c2ccc(Cl)c(C(=O)NCc3nc4ccccc4[nH]3)c2)CC1,0.5,/,-1%,0.5%,23%[15.4 µM],4

mol,TRPML1 agonist,Menin MLL FP FL,gsp antagonist,ClpP mod,gsp agonist,TRPML1 blocker
CC(C)Sc1ncc(S(=O)(=O)c2ccccc2)c(=O)[nH]1,-0.3,-1.6,5%,/,-2%,14
NS(=O)(=O)c1ccc(N=NN2CCCCC2)cc1,-0.7,3.3,/,/,13%[15.4 µM],-12
Cc1ccc(C(=O)C(OC(=O)c2c(C)cc(=O)oc2C)c2ccccc2)cc1 (stereo unspecified),1.1,2.1,-18%,1.6%,-3%,39
COc1ccc(CNC(=O)C[C@H]2C[C@H](C(=O)N3CCCCC3)[C@@]3(C)c4[nH]c5cc(-c6ccco6)ccc5c4CCN3C2=O)cc1OC,0.8,/,-19%,3.4%,/,-3
O=C(Cn1ccc2cc(S(=O)(=O)N3CCCCC3)ccc21)NCc1cccc(Cl)c1,2.5,/,/,-12%,/,-3
COC(=O)N1C/C=C\C(c2ccc(OC)cc2)N(Cc2ccc(F)cc2)C(=O)C1 (stereo unspecified),1.2&0.5,0.9&0.2,-2%,0.7%,/,-4&-17
O=C(OCc1cnc(Cl)s1)c1cccs1,0.5,1.9,9%,/,-13%,-7
COc1ccccc1OCCOCCOc1c(C)cc(C)cc1Br,5.2,2.7,-16%,1.3%,-42%[inhibitor],-15

mol,TRPML1 agonist,Menin MLL FP FL,gsp antagonist,ClpP mod,gsp agonist,TRPML1 blocker
CN(C)C(=O)c1cccc(-c2cccc(-c3nc(C(=O)NCc4ccccc4)cc4c3[C@@H](CCO)N(S(=O)C(C)(C)C)C4)c2)c1 (stereo partly specified),0.1,/,/,-1.9%,/,-7
CN(CC(=O)NCC(=O)Nc1ccc(F)c(F)c1F)C1CCS(=O)(=O)C1 (stereo unspecified),0.1,/,7%,0.3%,-68%[inhibitor],5
O=[N+]([O-])c1cc([N+](=O)[O-])c(Oc2ccc(Cl)c3cccnc23)cc1NN1CCCCC1,-0.7,1.1,?,1.0%,24%,17
Nc1ccc(NC2C[C@@H](C(=O)O)NC2=O)cc1 (stereo partly specified),0.6,-12,2%,/,-27%,-4
CCC(C)NC(=O)c1ccc2nc(-c3ccc(OC)c(OC)c3)c(-c3ccc(OC)c(OC)c3)nc2c1 (stereo unspecified),0.3,2.0,0%,-3.3%,18%,-2
COc1cc(C2/C(=C(\O)c3ccc4c(c3)CC(C)O4)C(=O)C(=O)N2CCN2CCOCC2)cc(OC)c1OC (stereo unspecified),0.4,/,7%,-5.9%,-22%[15.4 µM],-8
COc1ccccc1/C=C/C(=O)NC1CC2CCC1C2 (stereo unspecified),0.0,-0.5,-5%,-23%,6%,-22

Bioassay records from PubChem.
